High-throughput results: PubChem, National Center for Advancing Translational Sciences (NCATS)
Menin-MLL FL inh = qHTS Assay for Inhibitors Targeting the Menin-MLL Interaction in MLL Related Leukemias: Competition With Fluorescein Labeled MLL-derived Peptide. Fluorescence polarization, fluorescein-MLL peptide displacement from menin. FP activity change, % at 61.4 µM. 290,000 tested, under 10 active; inconclusive = falling polarisation curve, or a change in total fluorescence; inactive = total fluorescence flat and polarisation flat or rising; no compound was filed as active; the % refers to the polarisation; negative = inhibition;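 further: % of control where 0% means no effect; inhibitors lower the polarisation; unlabelled MLL peptide was the positive control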
gsp agonist = qHTS for Agonist of gsp, the Etiologic Mutation Responsible for Fibrous Dysplasia/McCune-Albright Syndrome: qHTS; gsp mutant cells, cAMP HTRF, 30 min; control for the full effect not named in the record; Potency, µM (series often up to 76.9 µM), inactives show at the highest dose activation (cAMP increase), actives largely listed as activators; 340,000 tested, 0.13% active; AID 624287, 2012; active = well fitted activation curve with a large enough effect; inconclusive = small, poorly fitted or top-dose-only effect, or another doubt; inactive = no such curve, though single readings can be large or run the other way; cell line not stated here;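 further: phosphodiesterase inhibitor Ro 20-1724 added with compounds to block cAMP breakdown; potency means the concentration at half of the fitted maximal effect; nearly all actives have a fitted effect of over 60% in size; about a fifth of the inactives were tested at one dose only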
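Cells stably selected in G418 were plated at 2000/well, grown 16-24 hr, then given compounds in DMSO with the PDE inhibitor […] (300 uM solution added) for 30 min at 37C; cAMP was read by HTRF.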
TRPML1 inh = qHTS for Inhibitors of the Human Mucolipin Transient Receptor Potential 1 (TRPML1) | 390,000 tested, 0.02% active | TRPML1-inducible cells, Ca2+ dye fluorescence, FDSS; stronger effect = lower value; inhibition of EC80 agonist-evoked calcium signal | Mucolipin-1 (Homo sapiens), Q9GZU1 | activity change, negative = inhibition, % (test concentration not listed); in the data active means activity change below about -50%; inconclusive means about -30% to -50%; inactive means above about -30%;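 further: stimulus is agonist 54-4 at its EC80 concentration; on the % scale 0 is the no-effect control and ±100 the full control effect; compound concentration not given in the record; the text of the record puts the active cut at -80%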
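Calcium fluorescence in TRPML1-DL cells induced overnight with Tet: a 110 s read after compound pin addition, then a 110 s antagonist read after challenge with 54-4 at 4 uM final (EC80).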
TRPV1 PAM = HTS Assay for Compounds that Act as Potentiators of the Vanilloid Receptor 1; AID 540277, 2011; Transient receptor potential cation channel subfamily V member 1 (Homo sapiens), Q8NER1; TRPV1-expressing cells, Fluo-8 calcium influx, capsaicin EC20 potentiation; host cell line not named in the record; control for the full effect not named in the record; potentiation, % at 8.33 µM; 320,000 tested, 0.02% active; active means potentiation above 80%; inconclusive means 30% to 80%; inactive means below 30%; further: 0% is about no effect
Target sequence (Q8NER1 whole entry, looked up): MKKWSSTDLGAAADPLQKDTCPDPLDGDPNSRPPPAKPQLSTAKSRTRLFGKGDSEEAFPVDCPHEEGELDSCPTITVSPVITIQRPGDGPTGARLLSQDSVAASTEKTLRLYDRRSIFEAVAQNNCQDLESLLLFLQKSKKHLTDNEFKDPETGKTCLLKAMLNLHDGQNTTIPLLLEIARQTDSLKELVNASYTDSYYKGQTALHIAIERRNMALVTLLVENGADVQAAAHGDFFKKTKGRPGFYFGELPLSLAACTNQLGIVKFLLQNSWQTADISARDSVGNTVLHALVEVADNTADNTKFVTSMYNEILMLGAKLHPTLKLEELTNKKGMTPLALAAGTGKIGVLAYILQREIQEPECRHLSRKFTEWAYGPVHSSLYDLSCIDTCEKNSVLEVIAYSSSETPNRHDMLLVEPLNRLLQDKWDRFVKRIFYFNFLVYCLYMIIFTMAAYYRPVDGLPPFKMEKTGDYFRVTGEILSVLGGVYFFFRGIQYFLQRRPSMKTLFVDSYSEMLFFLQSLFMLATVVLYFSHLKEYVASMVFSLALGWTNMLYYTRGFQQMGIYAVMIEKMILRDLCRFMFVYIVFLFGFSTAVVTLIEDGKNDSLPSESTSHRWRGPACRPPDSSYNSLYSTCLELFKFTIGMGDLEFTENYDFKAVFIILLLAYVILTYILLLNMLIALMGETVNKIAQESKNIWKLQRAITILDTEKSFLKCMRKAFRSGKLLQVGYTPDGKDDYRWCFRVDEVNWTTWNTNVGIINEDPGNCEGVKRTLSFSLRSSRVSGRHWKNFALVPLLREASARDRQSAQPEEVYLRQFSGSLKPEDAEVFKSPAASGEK
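Fluo-8 calcium influx in TRPV1-expressing cells, kinetic read (ex 480/em 520 nm). Compound added and read 3 min for agonist activity, followed by capsaicin at EC20 final and 2 min further read for enhancement.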
Sfp PPTase inh = qHTS Assay for Inhibitors of Bacillus subtilis Sfp phosphopantetheinyl transferase (PPTase) | Biochemical Sfp PPTase activity, qHTS | 4'-phosphopantetheinyl transferase ffp (Bacillus subtilis), Q9F4F7 | Potency, µM, for inactives: max response, negative = inhibition, actives largely listed as inhibitors | 310,000 tested, 3.5% active; active means well fitted inhibition curve with a large enough effect; inconclusive means small, poorly fitted or top-dose-only effect, or another doubt; inactive means no such curve, though single readings can be large or run the other way;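 further: the enzyme is Sfp with the accession as filed and its product quenches rhodamine fluorescence; potency means the concentration at half of the fitted maximal effect; 0% = enzyme reaction without inhibitor and -100% = no enzyme wells; top concentration of the series not given in the record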
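Fluorescence-quenching assay: 15 nM Sfp-PPTase preincubated 15 min at room temperature with compound, then 5 uM rhodamine-CoA and 12.5 uM BHQ-2-labelled YbbR peptide added. Fluorescence (ex 525/em 598 nm) read at start and after 30 min; difference gives rate.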
gsp antag = qHTS for Antagonists of gsp, the Etiologic Mutation Responsible for Fibrous Dysplasia/McCune-Albright Syndrome: qHTS; gsp-mutant cells, cAMP HTRF, 30 min; control for the full effect not named in the record; Potency, µM (doses to about 76.9 µM), for the others: top-dose activity change, negative = inhibition, hits mostly inhibitors; 340,000 tested, 0.4% active; AID 624288, 2012; active = falling curve of any shape with a large fitted effect; inconclusive = falling curve, mostly with a smaller effect; inactive = flat or rising curve; cell line not stated here;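 further: intracellular cAMP measured with PDE inhibitor Ro 20-1724 present during compound exposure; potency means the concentration at half of the fitted maximal effect; on the % scale 0 is the no-effect control and ±100 the full control effect; nearly all actives have a fitted effect of over 65% in size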
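HTRF cAMP read-out (cAMP-d2 plus anti-cAMP antibody-K in lysis buffer, 30 min RT). Before lysis, cells are exposed to compounds with […] for 30 min at 37C in DPBS containing Ca/Mg, BSA and Tween 20.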
ClpP mod = qHTS Assay for Activators of ClpP | ATP-dependent Clp protease proteolytic subunit (Bacillus subtilis (strain 168)), P80244 | purified B. subtilis ClpP, FRET peptide cleavage, 20 min | Potency, µM (series often up to 57.5 µM), for the others: at the highest dose activity change, negative = active | 340,000 tested, 1.9% active | AID 651965, 2013; active = well fitted falling curve with a large enough effect; inconclusive = small, poorly fitted or top-dose-only effect; inactive = no such curve, though single readings can be large or run the other way; further: potency means the concentration at half of the fitted maximal effect; the source files actives as falling curves though it sought activators and does not explain the sign; nearly all actives have a fitted effect of over 65% in size; many hits overshoot -100%
Target sequence (P80244 whole entry, looked up): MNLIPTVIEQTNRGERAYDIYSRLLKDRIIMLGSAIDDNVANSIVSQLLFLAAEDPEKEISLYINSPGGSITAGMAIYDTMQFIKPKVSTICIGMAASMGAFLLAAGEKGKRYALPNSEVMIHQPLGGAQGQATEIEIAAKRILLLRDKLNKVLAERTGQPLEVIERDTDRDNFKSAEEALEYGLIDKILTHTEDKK
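Buffer: 100 mM Tris/HCl pH8, 100 mM KCl, 0.05% low protease BSA, 2.5% glycerol, 0.01% Tween-20. ClpP 10 microg/mL final; 20 min RT; delta FRET normalized to ADEP and DMSO controls.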
Active calls of the source: *; ? = inconclusive; / = no result given; & = joins results of further samples; [ ] = another dose, or the depositor's remark.

no.	Structure	TRPML1 inh	Sfp PPTase inh	TRPV1 PAM	Menin-MLL FL inh	gsp agonist	gsp antag	ClpP mod
1	Cc1ccc(Cl)cc1N1CCN(C(=O)Cc2ccc(-n3c(=O)[nH]c4ccsc4c3=O)cc2)CC1	-2	-12%	3	6.5	-36%[inhibitor]	0%	-0.5%
2	CC(=O)Oc1ccc(Nc2ccccc2)cc1	-9	6%	3	1.3	15%	10%	0.0%
3	CCCCOc1ccc(C(C)NC(=O)CCS(=O)(=O)Cc2ccc(C)cc2)cc1 (configuration not stated)	43	11%	-3	3.8	1%	-13%	1.7%
4	Cc1ccccc1Cn1c(=O)c2c(nc3n2CCN3Cc2ccco2)n(C)c1=O	/	/	/	/	24%	-4%	-1.7%
5	O=C(CSc1nnc(-c2ccccc2)o1)NC1CCCCC1	-2	12%	-12	-0.7	27%	9%	0.7%
6	Cc1cc(C)n(C(=O)c2ccc(C)o2)n1	8	16%	6	4.3	7%	11%	-0.3%
7	COc1ccc(C2CC(=O)C3=C(C2)NC(C)=C(C(=O)Nc2ccccc2C)C3c2coc3ccc(C)cc3c2=O)cc1OC (configuration not stated)	-8	-1%	16	?	1%	-12%	-1.3%
8	CCOC(=O)Cc1csc(NC(=O)CSc2ncnc3c2cnn3-c2ccc(OC)cc2)n1	4	12%	-5	5.6	14%	-7%	78%
9	CCCCNc1nc2c(S(=O)(=O)c3ccccc3)nnn2c2ccccc12	11	9%	3	-1.1	22µM*	19%	-16%
10	CCCN(CCC)c1ncnc2c1cnn2-c1ccc(OC)cc1	-5	-1%	16	-0.2	6%	-5%	-21%
11	CC(=O)C1CCC2C(CCC3=CC(=O)CCC32)C1 (configuration not stated)	-25	/	/	/	43%	2%	/
12	CCOC(=O)/C(=C/c1ccc(OC(=O)c2ccncc2)cc1)C(C)=O	-9	-66%	-1	-4.3	4%[15.4 µM]	/	/
13	Cc1ccc(CNC(=O)CN2C(=O)NC3(CC(C)CC(C)(C)C3)C2=O)cc1 (configuration not stated)	9	/	15	/	-30%	4%	1.3%
14	Cc1[nH]n(-c2ccc([N+](=O)[O-])cc2)c(=O)c1C=NCCN1CCN(C(=O)c2ccccc2)CC1	0	-2%	2	-2.4	?	-5%	0.6%
15	CC(NC(=O)Nc1ccccc1O)(C(F)(F)F)C(F)(F)F	-3	?	-17	3.9	7%	5%	1.5%
16	CC(C)C(=O)Nc1ccc(C(=O)Nc2ccc(Br)cc2F)cc1	5	-2%	-31	0.8	-66%[inhibitor]	7%	/
17	Cc1ccc(C)c(OCCC(=O)OCC(=O)c2c(N)n(C)c(=O)n(C)c2=O)c1	-2	/	6	/	25%[15.4 µM]	-15%	/
18	CCCC(=O)N(Cc1cc2cccc(C)c2[nH]c1=O)c1ccccc1OC	22	5%	0	-0.6	5%	?	-21%
19	Cn1c(=O)n(C)c2cc(S(=O)(=O)N3CCN(c4ccccc4)CC3)ccc21	36	9%	-4	-1.5	14%	5%	0.4%
20	COc1ccc(CNC(=O)COC(=O)c2cc(C)oc2C)cc1	6	/	/	/	-118%[inhibitor]	/	-0.5%
21	CCOC(=O)C1CCCN(C(=O)c2ccc(CS(=O)(=O)c3ccc(Br)cc3)o2)C1 (configuration not stated)	-6	11%	2	4.9	-2%	-7%	1.5%
22	Cc1[nH]c(=O)c(C#N)c2c1COC(C)(C)C2	8	12%	8	-4.4	-6%[15.4 µM]	9%	/
23	CC(NC(=O)COC(=O)Cc1ccsc1)C1CC2CCC1C2 (configuration not stated)	-4	-4%	-29	0.5	-4%	11%	1.4%
24	COc1cc(C(=O)Oc2ccc(Br)cc2C(=S)N2CCOCC2)cc(OC)c1OC	-9	32µM*	15	1.6	-1%[15.4 µM]	/	/
25	COc1cc(SC)ccc1C(=O)NC1CCCCC1	-10	-1%	5	0.1	25%	-24%	-2.0%
26	COc1ccc(C(=O)Cn2nnc(-c3ccc(N4CCOCC4)cc3)n2)cc1OC	7	-5%	-16	1.7	23%	-8%	-6.0%
27	COc1ccc(/C=N/NC(=O)CCn2cnc(-c3ccccc3)c2-c2ccccc2)cc1OC	-6	0%	-1	5.1	-7%	11%	-2.1%
28	Oc1cccc(C(=S)N2CCCCC2)c1	14	22µM*	-6	0.3	10%[15.4 µM]	10%	/
29	CCOC(=O)c1nnn(-c2nonc2-c2ccccc2)c1C	5	-1%	-9	0.0	14%	6%	0.7%
30	Cc1ccc(S(=O)(=O)N2CCN(C(=O)c3cccc(-n4cccc4)c3)CC2)cc1	-6	/	4	/	-24%	-21%	-1.9%
31	COC(=O)c1ccc(COC(=O)c2cnc(Cl)c(Cl)c2)cc1	13	-11%	-8	-4.5	27%	7%	/
32	CC(Oc1ccccc1F)C(=O)NNC(=O)C1CC(=O)N(c2ccc3c(c2)OCCO3)C1 (configuration not stated)	-12	/	-5	/	-19%[15.4 µM]	0%	/
33	COc1ccc(-n2nc(C(=O)NCC(=O)N3CCCCCC3)c3ccccc3c2=O)c(OC)c1	-3	16%	-27	0.4	-16%[15.4 µM]	6%	-0.2%
34	CCCCNC(=O)CCSc1ccc(C)cc1	-4	15%	-3	4.7	2%	-3%	1.7%
35	NC(=O)N=Nc1c2[nH]c3ccccc3nc-2c2ccccc12	22	16%	3	4.2	?	?	/
36	CS(=O)(=O)c1ccc(CNC(=O)C2(C(F)(F)F)C/C(=C\Cc3ccccc3)CCCO2)cc1 (configuration not stated)	27&-11	-7%	/	-1.5	/	-5%	-5.2%
37	Cc1cc(C)n2c(Br)c(CSc3nc4ccccc4o3)nc2n1	-4	50µM*	14	0.5	2%	15%	28µM*
38	CC(=O)Nc1cccc(NC(=O)Cc2cccs2)c1	-8	2%	-6	3.6	27%	-1%	3.3%
39	CC(C)(C)CC(C)(C)Nc1c(-c2ccc(O)cc2)nc2cnccn12	6	/	/	/	?	14%	22µM*
40	CCOc1ccc(/C=N/OCC(=O)NCc2ccco2)cc1	6	22%	6	0.8	6%[15.4 µM]	1%	1.7%
41	COc1ccc(CNC(=O)Cc2cccs2)cc1OC	1	2%	19	-1.1	-5%[15.4 µM]	1%	-0.2%
42	O=C(CCC1N=C2c3ccccc3N=C(SCC(=O)NCc3ccco3)N2C1=O)NCc1ccco1 (configuration not stated)	22	-13%	25	3.0	10%[15.4 µM]	-6%	0.4%
43	COC(=O)c1ccc(NC(=O)CN2C(=O)C3C4C=CC(C4)C3C2=O)cc1 (configuration not stated)	-3	-1%	8	-3.4	6%	1%	-4.1%
44	COc1cc(Br)cc(CNc2ccc(F)c([N+](=O)[O-])c2)c1O	-4	25µM*	11	-0.2	-87%[inhibitor]	-17%	/
45	O=C(CCCn1nnc2ccccc2c1=O)N[C@H](C(=O)O)c1ccccc1	-54*	10%	5	1.0	20%	12%	0.4%
46	Cc1ccc(C(=O)N2CC(=O)Nc3ccc(F)cc3C2c2ccc(F)cc2)cc1[N+](=O)[O-] (configuration not stated)	30	-9%	1	12	0%	13%	-2.2%
47	Cc1ccc(NC(=O)Cn2nnc(C(=O)NCc3ccc4c(c3)OCO4)c2N)cc1	-4	-8%	4	-0.5	?	?	-1.5%
48	CC(=O)Oc1c(C)c2c3c(c1OC(C)=O)[C@@H](C)CC[C@@H]3[C@@H](C)C[C@H]2C=C(C)C	11	/	-20	/	-1%	-4%	0.4%
49	N#CC1=C(N)OC2=C(CCC/C2=C/c2ccoc2)C1c1ccoc1 (configuration not stated)	/	40µM*	30	?	/	/	/
50	CCn1c(C)nc2cc(S(=O)(=O)C(F)(F)F)ccc21	8	0%	-6	-2.0	4%	-17%	-2.2%
51	COc1cc(NC(=O)CSc2ccc(-c3ccco3)nn2)cc(OC)c1	14	28µM*	-5	/	44%	-18%	-7.6%
52	COc1ccc(OC)c(C(=O)COC(=O)COc2ccccc2F)c1	-9	/	-13	/	-10%	8%	-5.4%
53	COC(=O)CSc1nc(SCc2ccc(C)cc2)nc2c1CCCC2	7	-6%	-3	2.0	-22%	-24%	1.2%
54	Cc1ccnc(NC(c2cccnc2)c2ccc3cccnc3c2O)c1 (configuration not stated)	31	?	2	2.8	3%	-11%	/
55	Cc1cc(NC(=O)c2ccccc2Cl)n(C(C)(C)C)n1	6	23%	15	1.5	-7%[15.4 µM]	1%	16µM*
56	COc1ccc([C@@H]2CC=C(C(=O)O)[C@H](c3ccc(Cl)cc3)N2S(=O)(=O)c2ccc(Cl)cc2)cc1	20	/	24	/	2%	-18%	-2.3%
57	Cc1cc(C)nc(SCC(=O)Nc2ncc(C(F)(F)F)cc2Cl)n1	1	10%	18	4.9	11%[15.4 µM]	-5%	-2.6%
58	CCOC(=O)Cc1csc(NS(=O)(=O)c2ccc(Cl)cc2)n1	-26	16%	22	2.8	5%	-6%	-5.3%
59	COc1ccc(CNC(=O)Nc2cccc(C(F)(F)F)c2)cc1OC	-16	9%	-17	0.9	23%	1%	-2.5%
60	CC(=O)C1(C)N(O)C(C)(C)C(c2ccco2)=[N+]1[O-] (configuration not stated)	-1	18%	-2	2.2	-11%	-4%	-0.1%
61	CC(=O)c1ccc(NC(=O)CCc2nnc3ccc(N4CCC5(CC4)OCCO5)nn23)cc1	-6	12%	-6	-1.2	44%	-7%	-1.2%
62	CCC(C)NC(=O)CSc1nc2ccc(N3CCOCC3)cc2c(=O)n1CCc1ccccc1 (configuration not stated)	/	-15%	0	0.0	/	/	/
63	Cc1ccc2[nH]c(C(=O)N3CCCCC3)cc2c1	-10	3%	-39	7.5	-21%[15.4 µM]	-22%	-0.7%
